Source: PubChem BioAssay
gsp agonist = qHTS for Agonist of gsp, the Etiologic Mutation Responsible for Fibrous Dysplasia/McCune-Albright Syndrome: qHTS; gsp mutant cells, cAMP HTRF, 30 min; control for the full effect not named in the record; Potency, µM (top dose mostly 76.9 µM), for inactives: at the highest dose activation (cAMP increase), actives largely listed as activators; hit rate 0.13% among 340,000; active = well fitted activation curve with a large enough effect; inconclusive = small, poorly fitted or top-dose-only effect, or another doubt; inactive = no such curve, though single readings can be large or run the other way; cell line not stated here;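 note: phosphodiesterase inhibitor Ro 20-1724 added with compounds to block cAMP breakdown; potency is the fitted concentration of half-maximal effect; nearly all actives have a fitted effect of over 60% in size; about a fifth of the inactives were tested at one dose only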
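Cells in DMEM/10% FBS with G418 were pretreated with compounds in DMSO plus […] (300 uM stock) for 30 min at 37C. cAMP was measured by HTRF (cAMP-d2 plus anti-cAMP antibody-K) after 30 min at room temperature.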
TRPML1 inh = qHTS for Inhibitors of the Human Mucolipin Transient Receptor Potential 1 (TRPML1) | Mucolipin-1 (Homo sapiens), Q9GZU1 | TRPML1-inducible cells, Ca2+ dye fluorescence, FDSS; hits give low values; inhibition of EC80 agonist-evoked calcium signal | activity change, negative = inhibition, % (no concentration beside the values) | hit rate 0.02% among 390,000 | AID 624415, 2012; in the data active means activity change below about -50%; inconclusive means about -30% to -50%; inactive means above about -30%;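 note: stimulus is agonist 54-4 at its EC80 concentration; % is set by controls: 0 for no effect and ±100 for the full control effect; compound concentration not given in the record; the text of the record puts the active cut at -80%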
Target sequence (Q9GZU1 whole entry, looked up): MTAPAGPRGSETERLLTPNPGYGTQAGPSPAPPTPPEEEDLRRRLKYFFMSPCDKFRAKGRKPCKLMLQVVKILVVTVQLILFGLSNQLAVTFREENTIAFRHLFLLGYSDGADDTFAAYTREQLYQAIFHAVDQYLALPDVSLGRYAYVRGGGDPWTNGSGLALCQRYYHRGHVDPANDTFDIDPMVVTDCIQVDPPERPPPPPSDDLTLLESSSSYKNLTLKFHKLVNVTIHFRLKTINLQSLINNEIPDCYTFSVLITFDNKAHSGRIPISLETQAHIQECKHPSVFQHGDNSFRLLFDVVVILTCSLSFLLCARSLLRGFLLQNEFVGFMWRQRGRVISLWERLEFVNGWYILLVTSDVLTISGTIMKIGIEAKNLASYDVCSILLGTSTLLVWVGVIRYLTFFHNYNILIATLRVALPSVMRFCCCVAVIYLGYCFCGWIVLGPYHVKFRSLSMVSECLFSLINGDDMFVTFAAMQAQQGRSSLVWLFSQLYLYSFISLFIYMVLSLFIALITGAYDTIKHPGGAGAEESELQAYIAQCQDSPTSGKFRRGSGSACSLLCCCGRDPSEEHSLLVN
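Calcium fluorescence in TRPML1-DL cells induced overnight with Tet: a 110 s read after compound pin addition, then a 110 s antagonist read after challenge with 54-4 at 4 uM final (EC80).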
TRPML1 agonist = qHTS for Agonists of the Human Mucolipin Transient Receptor Potential 1 (TRPML1); activation, % (no concentration beside the values); TRPML1-expressing cells, Ca2+ dye fluorescence, FDSS; host cell line not named in the record; reference of the full effect not given here; AID 624414, 2012; hit rate 0.12% among 410,000; Mucolipin-1 (Homo sapiens), Q9GZU1; in the data active = activation above about 50%; inconclusive = about 30% to 50%; inactive = below about 30%; note: 0% is about no effect; the text of the record puts the active cut at 80%
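Kinetic FDSS Ca2+ read in Tet-induced TRPML1-DL cells (ABD Ca8 dye plus quencher, 45-90 min RT loading): baseline, then compound, then 110 s agonist window; EC80 agonist 54-4 at 4uM final added afterwards for a 110 s antagonist window.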
ClpP mod = qHTS Assay for Activators of ClpP; purified B. subtilis ClpP, FRET peptide cleavage, 20 min; Potency, µM (series often up to 57.5 µM), without a hit: at the top dose activity change, negative = active; hit rate 1.9% among 340,000; active = well fitted falling curve with a large enough effect; inconclusive = small, poorly fitted or top-dose-only effect; inactive = no such curve, though single readings can be large or run the other way; note: potency is the fitted concentration of half-maximal effect; the source files actives as falling curves though it sought activators and does not explain the sign; nearly all actives have a fitted effect of over 65% in size; many hits overshoot -100%
Target sequence (P80244 whole entry, looked up): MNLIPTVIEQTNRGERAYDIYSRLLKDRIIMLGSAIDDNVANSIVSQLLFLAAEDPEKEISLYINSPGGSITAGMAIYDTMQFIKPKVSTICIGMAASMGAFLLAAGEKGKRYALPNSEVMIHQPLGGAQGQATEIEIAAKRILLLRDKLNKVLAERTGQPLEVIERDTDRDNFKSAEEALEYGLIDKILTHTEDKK
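FRET quenching reversal measured ClpP activation: 10 microg/mL B. subtilis ClpP at pH 8 with the FRET-FV decapeptide, read at 430 nm after 320 nm excitation. The 20-min minus 0-min signal was scaled between DMSO/no-enzyme wells and ADEP (5.8 microM final).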
Menin-MLL FL inh = qHTS Assay for Inhibitors Targeting the Menin-MLL Interaction in MLL Related Leukemias: Competition With Fluorescein Labeled MLL-derived Peptide. Fluorescence polarization, fluorescein-MLL peptide displacement from menin. FP activity change, % at 61.4 µM. 290,000 tested, under 10 active; inconclusive = falling polarisation curve, or a change in total fluorescence; inactive = total fluorescence flat and polarisation flat or rising; no compound was filed as active; the % refers to the polarisation; negative = inhibition;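 note: % of control where 0% means no effect; inhibitors lower the polarisation; unlabelled MLL peptide was the positive control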
gsp antag = qHTS for Antagonists of gsp, the Etiologic Mutation Responsible for Fibrous Dysplasia/McCune-Albright Syndrome: qHTS. hit rate 0.4% among 340,000. Potency, µM (doses to about 76.9 µM), without a hit: top-dose activity change, negative = inhibition, hits mostly inhibitors. gsp-mutant cells, cAMP HTRF, 30 min; control for the full effect not named in the record; active = falling curve of any shape with a large fitted effect; inconclusive = falling curve, mostly with a smaller effect; inactive = flat or rising curve; cell line not stated here;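 note: intracellular cAMP measured with PDE inhibitor Ro 20-1724 present during compound exposure; potency is the fitted concentration of half-maximal effect; % is set by controls: 0 for no effect and ±100 for the full control effect; nearly all actives have a fitted effect of over 65% in size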
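Cells in G418 medium, seeded 16-24 h, 37C; buffer exchange to DPBS + 1 mM CaCl2, 0.5 mM MgCl2, 0.05% BSA; cpds in DMSO + […] (300 uM stock), 30 min 37C; HTRF cAMP detection.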
An asterisk follows results filed as active; ? = inconclusive; · = not tested or not shown; & = joins results of further samples; [ ] = remark or other dose.

SMILES	gsp agonist	TRPML1 inh	TRPML1 agonist	ClpP mod	Menin-MLL FL inh	gsp antag
O=C(Nn1cnc2ccccc2c1=O)c1ccc(Cl)c([N+](=O)[O-])c1	6.2%[15.4 µM]	2.8	-0.6	-2.0%	0.4	-14.1%
S=C1NC2=C(C(c3ccc(Br)cc3)N1)N1CCC2CC1 (configuration not stated)	-32.6%[inhibitor]	9.1	0.6	0.3%	5.3	29.5%
O=C(OCc1cc(=O)n2c(n1)sc1ccccc12)c1ccc(O)cc1	8.9%	49.6	0.7	-0.5%	6.3	2.8%
CCn1c(=O)cc(SCC(=O)NCCCN2CCC(C)CC2)c2ccccc21	?	6.6	0.3	·	2.9	-7.2%
Cc1ccccc1C(=O)OCc1cc(=O)n2nc(-c3cccs3)sc2n1	·	-7.6	-1.0	-7.8%	·	·
Cc1ccc(NCC(=O)N/N=C/c2c[nH]c3ccccc23)cc1	2.0%[15.4 µM]	51.8	1.3	·	-6.3	-7.2%
COc1ccc(CNC(=O)c2c(O)c3ccccc3n(C)c2=O)cc1	21.3%[15.4 µM]	-10.3	-0.1	-2.6%	1.1	13.2%
Cc1ccc(NC(=O)C(C)N2C(=O)c3ccccc3C2=O)cc1 (configuration not stated)	13.1%	-22.5	0.6	0.9%	1.5	4.4%
COc1cc2c(cc1OC)C(=O)C(c1ccc3c(c1)OCO3)CC2 (configuration not stated)	-22.0%	8.9	0.5	-2.5%	·	·
CC(NC(=O)c1c(F)cccc1Cl)c1ccc(-n2ccnc2)cc1 (configuration not stated)	-7.1%	12.6	-0.5	-1.6%	·	5.4%
COc1ccc2nc(C)cc(SCC(=O)NNC(=O)COc3cccc4ccccc34)c2c1	-18.6%	10.8	2.7	-8.4%	1.6	-19.1%
O=C(Nc1cccc(-c2cn3cccnc3n2)c1)c1ccc2c(c1)OCO2	13.7%	-6.5	0.1	28.2µM*	1.4	-12.6%
O=C(c1cc2c(s1)CCCC2)N1CCN(CCO)CC1	0.1%	-6.8	0.6	·	·	6.3%
O=C(NC(=S)Nc1ccc(Cl)cc1Cl)C1CC1	-13.8%	-11.9	1.9	-0.8%	-3.3	-5.2%
CCNC(=O)N(CC)C[C@H]1N[C@@](C)(C(=O)OC)[C@H]2C(=O)N(C)C(=O)[C@@H]12	·	-11.1	0.9	1.6%	·	15.7%
Cc1cc(C)c(OCC(=O)Nc2nnn(C)n2)c(Br)c1	-15.7%	30.9	4.3	-1.7%	5.6	0.6%
COc1ccc(NC(=S)NC(=O)C2CCCCC2)cc1	29.3%	6.8	-0.2	0.5%	·	-2.5%
C#CCOCCOCCOCCNc1nc(N2CCN(C(=O)Cn3cc(CC(C)O)nn3)CC2)nc(N2CCN(C(=O)[C@H]([C@@H](C)CC)n3cc(CCCCN)nn3)CC2)n1 (some centres not stated)	·	-3.0	1.6	0.7%	·	8.5%
Cc1ccc(C)c(N(CC(=O)NCCC2=CCCCC2)S(C)(=O)=O)c1	2.4%	0.9	0.0	-2.7%	2.3	-10.3%
CCCN=C1CC(C)(C)CC(=O)/C1=C(/O)CCCN1C(=O)c2ccccc2C1=O	1.7%	11.6	-0.2	1.6%	-2.4	-1.5%
CCOC(=O)N1CCC(NC(=O)Cn2cc3c(n2)CCC(C)C3)CC1 (configuration not stated)	-1.1%	3.2	0.3	0.7%	1.7	4.2%
O=C(c1ccc(Cl)c([N+](=O)[O-])c1)N1CCN(c2ccccn2)CC1	9.6%	11.4	-0.8	-3.5%	1.7	-8.1%
COc1ccc(Nc2oc(-c3ccc(Cl)cc3)nc2C#N)cc1	9.6%	-12.4	-0.7	11.1%	1.1	2.8%
Fc1ccc(OCCCn2ccnc2)cc1	3.5%	4.8	-0.6	1.2%	0.1	8.6%
CC1(N2CCOCC2)CC2(O)C(=[N+]1[O-])CCc1c2no[n+]1[O-] (configuration not stated)	2.1%	13.8	0.4	-17.2%	-0.1	5.0%

More records follow:
SMILES	gsp agonist	TRPML1 inh	TRPML1 agonist	ClpP mod	Menin-MLL FL inh	gsp antag
COc1ccc(Cl)cc1NC(=O)CN1CCN(Cc2ccccc2)CC1	-19.5%[15.4 µM]	-6.3	-0.6	0.5%	-1.5	-4.2%
Cc1cccc(OCc2nc(-c3ccc(Br)o3)no2)c1	13.3%	-17.7	2.4	·	-0.5	8.0%
COc1cc(C2c3cc4c(cc3OC(N3CCCCC3)C2C)OCO4)cc(OC)c1O (configuration not stated)	?	-15.5	-0.3	-0.8%	·	8.8%
Cc1cc(=O)n2nc(N3CCC(C(=O)NCc4ccccc4F)CC3)sc2n1	31.5%	19.9&11.7	3.2&-0.5	0.7%&-1.6%	3.7	9.0%
COc1ccc(C(=O)N/N=c2\oc3ccccc3cc2C(N)=O)cc1	4.2%[15.4 µM]	1.0	0.1	·	-22.2	?
Cc1ccc(C(c2nnnn2CCc2ccccc2)N2CCSCC2)cc1 (configuration not stated)	2.4%[15.4 µM]	14.5	0.4	-1.2%	-1.3	-19.3%
COC(=O)c1ccc(Oc2nc(N(C)C)nc(N3CCOCC3)n2)cc1	-5.4%	2.3	0.8	0.7%	2.3	-4.0%
Cc1c(Cc2ccccc2)c(NCCN(C)C)n2c(nc3ccccc32)c1C#N	-16.5%[15.4 µM]	27.3	0.1	·	3.5	?
CCC(=O)N(C)C[C@H]1Oc2cc(-c3cccnc3)ccc2S(=O)(=O)N([C@H](C)CO)C[C@H]1C	-44.3%[inhibitor]	14.0	-0.5	-0.2%	·	·
O=C(Nc1cccc(CCc2ccccn2)c1)c1cc(F)c(F)cc1Cl	13.4%[15.4 µM]	9.5	-0.6	-3.1%	-0.2	-9.2%
CC(=O)c1ccc(-c2ccc(C3C4C=CCCC4(C)C(=O)N3Cc3ccccc3)c(F)c2)cc1 (configuration not stated)	·	63.0	0.8	·	1.2	·
CC(C)CN(C(=O)CN1CCN(c2cccc(Cl)c2)CC1)c1c(N)n(CC(C)C)c(=O)[nH]c1=O	12.0%[15.4 µM]	12.2	3.6	·	-1.3	1.6%
COc1ccc(CCN2CCCC(CN(C)Cc3cccc(OC)c3)C2)cc1 (configuration not stated)	17.5%	11.0	0.6	·	-3.0	-3.0%
CCOC(=O)c1nn(-c2ccc(OC)cc2)c(=O)c2c(N)scc12	2.1%	15.1	0.6	0.2%	1.6	8.2%
COc1ccc([C@H]2[C@H](C(=O)OC(C)(C)C)N3N=Cc4ccccc4C3C23C(=O)c2ccccc2C3=O)c(OC)c1 (some centres not stated)	2.2%[15.4 µM]	-9.6	1.1	1.5%	·	-17.2%
O=C(NCCn1cccn1)c1ccc(OC2CCN(C(=O)C3CC3)CC2)cc1	-13.3%	-6.3	1.3	-0.6%	0.8	6.3%
CCOC(=O)/C(C#N)=C\C1=C(N2CCCC2)CC(C)(C)OC1	-12.6%	8.1	-0.8	-7.7%	0.0	0.9%
COc1cc(C=O)ccc1OCCCOc1ccccc1C(=O)O	6.9%	5.8	-0.2	-8.9%	4.8	-6.9%
CCOc1ccc(NC(=O)CSc2nnc(C)n2CC)cc1	-0.1%[15.4 µM]	-0.7	-1.2	1.0%	2.5	0.9%
c1ccc(C(c2ccccc2)N2CCN(Cc3nc(-c4cnccn4)no3)CC2)cc1	24.6%	0.6	1.2	0.3%	1.9	-8.4%
CCOc1ccc(NC(C(=O)Nc2cccc(C(C)=O)c2)c2ccccc2)cc1 (configuration not stated)	-21.8%	8.0	1.5	4.2%	-0.9	-0.2%
NC(=O)c1ccc(-c2ccccc2F)cc1	-29.5%	10.8	-1.4	-4.0%	4.8	4.3%
CNC(=O)C(=O)NCC(c1cccs1)S(=O)(=O)c1ccc(F)cc1 (configuration not stated)	-61.7%[inhibitor]	-2.3	-0.7	0.8%	·	17.3%
Cc1noc(C)c1C(=O)NCCc1ccccc1	-23.1%	15.5	0.1	-0.8%	3.1	6.1%
Cn1c(CSc2nc3ccccc3s2)n[nH]c1=S	-30.7%[inhibitor]	-9.3	1.9	2.2%	1.9	-6.6%

(list continues)
SMILES	gsp agonist	TRPML1 inh	TRPML1 agonist	ClpP mod	Menin-MLL FL inh	gsp antag
Cc1ccc(CNC(=O)CNC(=S)N(Cc2ccccc2)Cc2cccnc2)cc1	19.5%	-7.6	-0.4	·	-1.6	-29.5%
C=CCn1cccc(C(=O)Nc2ccc(OC)c(OC)c2)c1=O	-2.2%[15.4 µM]	10.8	0.0	·	-6.1	2.2%
COc1ccc(CNc2nc3nc(-c4ccccc4)cc(=O)n3[nH]2)cc1OC	14.9%	4.5	-0.6	-14.3%	1.9	5.9%
CC1=C(C(=O)Nc2ccccc2C)C(c2ccncc2)n2nc(SCc3ccccc3Cl)nc2N1 (configuration not stated)	·	-7.5	0.9	-2.0%	·	·
O=C(NCc1ccccc1)C(Cc1ccccc1)NS(=O)(=O)c1cccc2nsnc12 (configuration not stated)	8.8%	4.4	-0.5	0.6%	2.4	-17.8%
Cc1cccc(C)c1NC(=O)CN(C)C(=O)C1CCN(c2ncnc3sc(C)c(C)c23)CC1	?	-0.7	-1.2	-0.2%	·	-20.0%
COc1ccc(NC(=O)CCC(=O)Nc2cc(OC)c(NC(=O)c3ccco3)cc2OC)c(OC)c1	-5.3%[15.4 µM]	-5.7	1.8	·	-1.9	-8.0%
COc1cc(NS(=O)(=O)c2ccc(NC(=S)NC(=O)c3ccccc3)cc2)nc(OC)n1	5.9%[15.4 µM]	1.4	0.2	·	-3.3	?
CCC(Oc1ccccc1)C(=O)Nc1nnc(C(F)(F)F)s1 (configuration not stated)	6.6%	-19.4	1.9	-1.9%	0.4	-2.9%
CCOC(=O)C1(CCOc2ccccc2)CCN(Cc2ccc(-n3cccn3)cc2)CC1	23.8%	7.5	5.4	-2.1%	6.5	0.0%
CC(C)Cn1cnc2c1c(=O)n(CC(=O)Nc1ccc3c(c1)OCO3)c(=O)n2Cc1ccccc1	9.4%	18.4	0.5	0.3%	3.2	-14.5%
CCOC(=O)c1c(N)c(C#N)cn1-c1ccccc1	22.2%	13.5	2.5	-9.1%	4.5	-2.5%
Cc1ccc(N/C=C2\C(=O)C3(C)CCC2C3(C)C)cc1C (configuration not stated)	-22.4%[15.4 µM]	43.7	1.6	·	2.1	0.4%
CCOC(=O)[C@H]1[C@H]2COc3ccc(Cl)cc3[C@@H]2N2C(=O)CN(C)C(=O)[C@@]12C	28.3%	17.4	-0.4	-0.2%	·	-1.5%
COCCN(C(=S)Nc1ccc(OC)cc1)C(C)c1cccs1 (configuration not stated)	?	-1.1	-0.7	2.1%	-2.0	-4.5%
